HSV replic up: enhancers of HSV replication in host cells, fold increase, host cell viability. 220,000 compounds, 0.005% hits. maximum fold increase. HSV replication augmentation in cells;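 active = peak rise of 1.5-fold or more in the series; inconclusive = self-fluorescent or not available for retest; tested in PC3 cells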;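 also: first round at 10 µM; read as green reporter fluorescence; hits show the peak of a series up to 25 µM; 1 = signal of infected wells without compound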
PKD1 inh: inhibitors of human PKD1 kinase, biochemical, fluorescence polarization | PKD1 kinase fluorescence polarization assay | inhibition, %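 (about 10 µM by stock and volumes)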 | Serine/threonine-protein kinase D1 (Homo sapiens), Q15139 | 200,000 compounds, 0.056% hits;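 active = inhibition of 50% or more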;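 also: controls were vehicle for no effect and a reference inhibitor for full effect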
GALR2 ag: GALR2 receptor agonists, primary screen, cell-based | GALR2-expressing cells, agonist activation read-out | activation, %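 (tested at 5 µM)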 | AID 803, 2007 | Galanin receptor type 2 (Homo sapiens), O43603 | 140,000 compounds, 0.48% hits;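 active = above mean plus 3 SD of all compounds, about 5% in these data, not always enough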;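 also: 0% = vehicle buffer wells and 100% = reference agonist at full effect; tested in CHO reporter cells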
Target sequence (O43603 whole entry, looked up): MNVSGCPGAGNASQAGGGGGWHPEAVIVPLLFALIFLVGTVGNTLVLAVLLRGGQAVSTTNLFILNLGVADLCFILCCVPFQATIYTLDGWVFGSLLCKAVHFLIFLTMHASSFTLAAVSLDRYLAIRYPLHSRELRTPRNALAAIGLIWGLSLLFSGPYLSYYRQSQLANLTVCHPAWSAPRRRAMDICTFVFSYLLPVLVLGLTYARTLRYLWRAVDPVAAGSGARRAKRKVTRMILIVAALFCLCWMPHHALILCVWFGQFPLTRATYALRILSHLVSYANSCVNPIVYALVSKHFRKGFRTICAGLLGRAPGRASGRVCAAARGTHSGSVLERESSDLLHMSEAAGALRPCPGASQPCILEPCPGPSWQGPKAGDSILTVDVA
RGS16-Gao: modulators of RGS16 binding to Galphao, primary screen, biochemical, human proteins, multiplexed bead flow cytometry | Regulator of G-protein signaling 16 (Homo sapiens) + Guanine nucleotide-binding protein … | bead-based flow cytometry RGS16-Galphao binding, fluorescence; actives lie on both sides | binding response (% of control), % at 10 µM | 220,000 compounds, 0.38% hits | AID 1441, 2008;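 active = below 25% or above 175%, edge rows of some plates excepted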;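 also: Galphao activated by GDP with aluminum fluoride before binding; 100% = wells without compound and 0% = beads without RGS; some results beyond the cut were filed as inactive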
Target sequence (O15492 whole entry, looked up): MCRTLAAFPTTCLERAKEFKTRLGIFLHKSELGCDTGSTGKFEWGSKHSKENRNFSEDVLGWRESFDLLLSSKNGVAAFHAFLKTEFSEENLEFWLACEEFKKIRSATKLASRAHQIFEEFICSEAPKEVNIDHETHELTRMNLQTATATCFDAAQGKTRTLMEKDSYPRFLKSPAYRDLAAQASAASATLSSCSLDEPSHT
Target sequence (P09471 whole entry, looked up): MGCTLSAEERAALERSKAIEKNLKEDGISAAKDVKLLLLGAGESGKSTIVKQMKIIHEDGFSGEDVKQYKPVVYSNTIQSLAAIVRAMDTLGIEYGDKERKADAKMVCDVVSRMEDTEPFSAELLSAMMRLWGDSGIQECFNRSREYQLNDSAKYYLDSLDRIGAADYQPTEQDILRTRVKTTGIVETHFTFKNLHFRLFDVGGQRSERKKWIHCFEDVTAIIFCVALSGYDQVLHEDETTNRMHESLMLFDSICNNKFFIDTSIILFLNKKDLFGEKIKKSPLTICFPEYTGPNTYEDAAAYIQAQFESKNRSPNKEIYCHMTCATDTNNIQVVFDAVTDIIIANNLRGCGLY
Insulin prom inh: inhibitors of insulin promoter-driven GFP, primary screen, imaging, TRM-6 cells (human fetal islet line), eGFP reporter, cell count | reporter expression induced with tamoxifen | inhibition, % at 2 µM | 130,000 compounds, 0.9% hits | AID 1273, 2008;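 active = inhibition above the mean plus 3 SD, with well images judged a real hit on visual review, cut at about 60% in these data, passing the limit was not always enough; inconclusive = inhibition over the cutoff but images rejected on review; inactive = inhibition not above the cutoff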
Insulin prom inh cell count: second read-out of Insulin prom inh, no call of its own (marks repeat the call); normalized cell count, %; measured here: cell count, toxicity; reference of the scale not given here;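 cells exposed to compound for 48 h; stained nuclei by imaging scaled within each plate; lower means fewer cells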
HSV replic up primary fold: also measured in HSV replic up; calls as there; fold increase; compound at 10 µM; measured here: primary screen fold increase 10 uM; tested in PC3 cells;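 GFP signal in the first replicate; 1 = infected wells without compound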
* = called active by the depositor; i = inactive; u = inconclusive; x = not tested or not shown.

Start of the listing, in advance, 2 compounds:
SMILES	HSV replic up	HSV replic up primary fold	PKD1 inh	GALR2 ag	RGS16-Gao	Insulin prom inh	Insulin prom inh cell count
O=[N+]([O-])c1cccc(-c2nnc3ccccn23)c1	i	0.95	x	x	100	x	x
O=C(CC(=O)Nc1nc(C23CC4CC(CC(C4)C2)C3)cs1)NCCO	i	0.98	x	x	110	x	x

The list itself (from the top)
SMILES	HSV replic up	HSV replic up primary fold	PKD1 inh	GALR2 ag	RGS16-Gao	Insulin prom inh	Insulin prom inh cell count
O=[N+]([O-])c1cccc(-c2nnc3ccccn23)c1	i	0.95	x	x	100	x	x
O=C(CC(=O)Nc1nc(C23CC4CC(CC(C4)C2)C3)cs1)NCCO	i	0.98	x	x	110	x	x
CC(C(=O)Nc1ccc(S(=O)(=O)N2CCCC2)cc1)N1CCN(C(=O)c2ccco2)CC1 (configuration not stated)	i	1	-7	-3.0	104	10	102
CCOc1ccccc1C1N(c2ccc(OC)cc2)C(=O)C2CCCN21 (configuration not stated)	i	0.88	-10	-0.4	107	x	x
Cc1nc2cc(NCc3nc4ccccc4n3Cc3ccccc3)ccc2n1C	x	x	-5	0.1	109	x	x
O=C(Nc1ccc(Cl)c(Cl)c1)N1CCSC1c1ccco1 (configuration not stated)	i	1.1	-3	-1.8	113	x	x
O=C(NCc1ccc(F)cc1)C1CCCN1C(=O)NCc1ccccc1 (configuration not stated)	i	1.2	11	-0.8	98	x	x
COc1ccc(NC(=S)N(CCCN2CCOCC2)Cc2cn(C)c3ccccc23)cc1OC	i	0.8	-9	0.3	106	-14	105
COc1ccccc1CNC(=O)c1ccccc1NS(C)(=O)=O	i	1.1	-6	-2.0	106	20	91
COc1cccc(Nc2nc(-c3sc(NC(=O)c4ccccc4)nc3C)cs2)c1	i	0.84	12	0.4	95	x	x
COc1ccc(C(=O)NC(=S)Nc2ccc3c(c2)Cc2ccccc2-3)cc1	i	1.1	-5	-0.8	98	-3	80
COc1cc(=O)[nH]c(SCc2c(F)c(F)c(F)c(F)c2F)n1	i	1	8	-2.8	76	71	111
Cc1ccccc1C(=O)NC(=S)Nc1ccccc1C(F)(F)F	i	1.1	-1	-1.0	95	0	77
Fc1cccc(CO/N=C/c2c(-c3ccccc3)nc3ccc(Cl)cn23)c1	i	0.71	6	0.4	100	x	x
CCOC(=O)C1CCN(C(=O)Nc2ccc3snnc3c2)CC1	i	0.83	-14	-1.4	104	-235	136
COc1ccc(OC)c(/C=C2\SC(=S)N(Cc3cccnc3)C2=O)c1	i	0.87	-4	-0.2	14*	43	75
Cc1ccccc1OCCCN1C(=O)C(=O)c2cccc(C)c21	x	x	-12	-0.1	105	x	x
CCOC(=O)N1CCN(c2cc(NCCC(=O)O)c3c4c(onc24)-c2ccccc2C3=O)CC1	x	x	56*	-0.2	60	x	x
O=C(CSc1ncn(-c2ccccc2)n1)Nc1nccs1	i	0.75	-2	-2.8	106	8	115
COC(=O)c1ccc(N2CCN(S(=O)(=O)c3ccc(Br)cc3)CC2)c([N+](=O)[O-])c1	i	0.78	2	-1.5	101	x	x
O=C(CN(C(=O)CCNC(=O)c1ccco1)c1ccccc1)NC1CCCC1	i	1.2	-2	-1.1	113	-18	114
COc1ccc(Cl)cc1NC(=O)CSc1nnc(Cn2c(=O)sc3ccccc32)n1C	i	1.1	-10	-0.2	101	x	x
C(=C\c1ccccc1)/C=N/n1cnnc1	i	0.61	1	-0.4	103	0	129
COC(=O)c1cc(Br)c(=O)n(Cc2ccc3c(c2)OCO3)c1	i	0.86	-3	-1.7	94	x	x
O=C(NCCO)c1ccc(CSc2nc3ccccc3[nH]2)cc1	i	1	6	0.1	110	27	99
CCNC(=O)CC(=O)Nc1ccccc1C(=O)O	i	0.98	2	-2.1	102	x	x
COC(=O)c1ccc(COc2ccc(-c3nnn(CC(N)=O)n3)cc2)cc1	i	0.84	-3	x	100	36	125
Cc1cc(C)c(C#N)c(SCC(=O)Nc2ccccc2)n1	i	0.86	-7	x	102	x	x
CCN(NC(=O)C(O)(c1ccc(F)cc1)c1ccc(F)cc1)C(=O)c1ccccc1	i	1	5	0.1	101	x	x
COc1nc(NS(=O)(=O)c2ccc(C)cc2)nc(C)c1Cl	i	0.93	2	-0.7	98	23	88
O=C(Nc1ccccc1)N(C1=NCCC1)c1ccccc1	i	1.1	x	x	103	x	x
S=C(NCCc1ccccc1)Nc1ccccc1Cl	i	1	-2	-0.3	110	-33	66
Cc1ccc(NCC(O)C(O)C(O)CO)c(N=Nc2ccccc2)c1C (configuration not stated)	i	0.73	x	x	100	x	x
COc1ccc(OC)c(CCNC(=O)CS(=O)(=O)Cc2nc(-c3ccc(C)cc3)oc2C)c1	i	0.87	-10	-1.2	93	14	80
Cc1cc2nc3ccc(=[N+](C)C)cc-3sc2cc1N	i	0.58	x	x	102	x	x
Cc1ccc(N=C2N=C(N)c3ccccc32)c(C)c1	i	0.97	-11	-2.6	102	30	140
C/C(=N/NC(=O)CNc1ccc(C)cc1)c1ccc(Cl)cc1	i	0.81	3	-0.2	x	23	114
O=C(CCNS(=O)(=O)c1ccc(Br)s1)NCc1ccc2c(c1)OCO2	i	0.93	-1	x	100	25	114
CCc1ccc(-n2c(C)cc(/C=N/NC(=O)c3ccncc3)c2C)cc1	i	1	3	x	100	-16	101
CCCCNC(=O)/C(C#N)=C/c1ccc(F)cc1F	i	0.92	-5	x	103	x	x
CCCCCn1c(Br)nc2c1c(=O)n(CC(N)=O)c(=O)n2C	i	0.9	6	-2.3	88	-15	69
CCCn1c2c(c(=N)c3c1CCC3)CCC2	i	0.75	x	x	104	x	x
Cc1ccc2c(N)[nH]nc2n1	i	1	-5	x	61	x	x
Cc1cccc(NS(=O)(=O)c2cccc([N+](=O)[O-])c2)n1	i	0.91	-5	x	107	-12	156
COc1ccc(-c2c(C(F)(F)F)nn(C)c2NC(C)=O)cc1	i	1	x	x	97	x	x
CC1=CC(C)(C)n2c(O)c(N=NC(N)=S)c3c(C)ccc1c32	i	0.83	4	0.8	100	x	x
C=CCNc1nc(Cl)nc(Nc2ccc(OC)cc2OC)n1	i	1	-5	x	98	14	161
Cc1ccc(Sc2ccc(N)cc2C#N)cc1	i	0.97	-9	-1.5	x	x	x
COc1ccccc1OCc1cc(-c2ccccc2)no1	i	0.97	-11	x	99	22	87
CCc1ccc(OCCNC(=O)c2cc(SC)ccc2Cl)cc1	x	x	-4	-2.6	96	6	119

(more compounds)
SMILES	HSV replic up	HSV replic up primary fold	PKD1 inh	GALR2 ag	RGS16-Gao	Insulin prom inh	Insulin prom inh cell count
CCOc1ccccc1NC(=O)C1CCCN(S(=O)(=O)c2ccc(OC)c(C)c2)C1 (configuration not stated)	i	0.75	-7	-1.8	105	-93	95
NS(=O)(=O)c1ccc(Nc2nc(-c3ccc(O)cc3)cs2)cc1	i	0.85	-7	-5.0	122	40	149
CCOc1ccc(C)cc1S(=O)(=O)N1CCCCC1	i	1.2	-12	-2.5	99	-27	155
Cc1cc(C)c2c(-n3cccc3)c(C(=O)NNS(=O)(=O)c3ccc(Br)cc3)sc2n1	i	0.86	0	1.3	98	38	110
C#CCn1c(=NC(=O)CN2C(=O)CCC2=O)sc2cccc(OC)c21	i	1	x	x	98	x	x
CCOC(=O)C1C(=O)NC(SCC(=O)Nc2nccs2)=C(C#N)C1c1ccccc1OCC (configuration not stated)	i	1.1	-1	0.1	116	-44	16
C/C(=N\Nc1nc(N)cc(Cl)n1)c1cccc(N)c1	i	0.99	-1	-3.5	55	-54	96
CCCn1c(SCC(=O)Nc2ccccc2Cl)n[nH]c1=O	i	0.68	x	x	95	x	x
CCOC(=O)c1sc(NC(=O)COC(=O)C(CCSC)NC(C)=O)nc1C (configuration not stated)	i	1	5	0.5	9.0*	x	x
Cc1cccc(-c2nsc(SCC(=O)Nc3cc(C)on3)n2)c1	i	0.93	-9	-2.0	95	x	x
COc1ccc(CNC(=O)C2CCC(=O)N2C(C)C)c(OC)c1 (configuration not stated)	i	1.1	x	x	95	x	x
CC1CC(CC(C)C(=O)Nc2nncs2)C(=O)O1 (configuration not stated)	i	0.89	-2	-0.9	88	50	100
COCCN(CCOC)S(=O)(=O)c1ccc(C(=O)Nc2nnc(C)o2)cc1	i	1	3	-2.8	101	x	x
CCOCCCNC(=S)N1C2CCC1CC(NC(=O)NC13CC4CC(CC(C4)C1)C3)C2 (configuration not stated)	i	1.1	-9	-2.4	111	-46	142
O=C(N/N=C/C=C/c1ccc2c(c1)OCO2)c1ccc([N+](=O)[O-])cc1	i	0.95	1	-3.1	87	6	137
CCCc1nnc(NC(=O)Cn2c(=O)sc3ccccc32)s1	i	0.85	3	-3.1	103	36	127
O=C(N/N=C/C=C/c1ccccc1)C(O)c1ccccc1 (configuration not stated)	i	1	16	-5.1	x	-17	148
COC(=O)C(NS(=O)(=O)c1ccc(C)cc1)c1ccccc1 (configuration not stated)	x	x	5	x	64	-85	80
CCOC(=O)C(=CN=C(N)Nc1nc2ccccc2o1)C(=O)OCC	i	0.89	-4	x	101	-22	53
Cc1ccc(-c2csc(=Nc3cccnc3)n2CCCn2ccnc2)cc1C	i	0.55	-8	1.6	104	46	78
CC(=O)C1=C(C)NC(SCC(=O)c2ccc(-c3ccccc3)cc2)=C(C#N)C1c1cccnc1 (configuration not stated)	i	1.1	-1	-1.4	91	-22	122
CCn1c(NN)nc2sc3c(c2c1=O)CCC3	u	x	4	-0.5	89	37	113
CCOCCn1c(CN2CCOCC2)nc2c1c(=O)[nH]c(=O)n2C	i	0.87	0	-1.8	99	x	x
O=C(N/N=C/c1ccc2cccc(OCc3ccccc3)c2n1)c1ccc(Cl)cc1	i	0.83	-8	-0.3	99	x	x
O=C(Nc1cccc2nsnc12)C1CC(=O)N(c2ccccc2)C1 (configuration not stated)	i	0.95	-9	-2.2	86	x	x
CCCS(=O)(=O)N1CCN(c2ccccc2F)CC1	i	1	-9	-2.3	107	24	53
Cc1[nH]c(=O)c(C#N)c2c1CSC(C)(C)C2	i	1	5	-0.8	88	16	123
Cc1ccc(Oc2nc3ccccc3n3cccc23)cc1	i	0.94	-3	-0.2	108	-11	116
COCCNC(=O)c1ccccc1NC(=O)c1ccccc1SC	i	0.9	-12	x	97	-83	123
COc1ccc(Cl)c(Cn2c(NCC(C)O)nc3c2c(=O)n(C)c(=O)n3C)c1 (configuration not stated)	i	0.91	-6	0.2	113	-18	94
O=C(COC(=O)[C@H](Cc1ccccc1)NC(=O)c1cccs1)Nc1c(Cl)cccc1Cl	i	1.1	-2	0.4	98	x	x
COc1nc(N)c(S(=O)(=O)c2ccccc2)cc1C#N	i	1.1	8	-1.4	407	-12	107
Cc1cccc(N2CCN(C(=O)C(C)C)CC2)c1C	i	0.9	-10	4.8	208	79*	142*
COC(=O)C1=C(C)N(C)C(=S)NC1c1ccccc1 (configuration not stated)	i	0.92	-2	-2.8	101	-16	106
COc1cc([N+](=O)[O-])cc(/C=N/NC(=O)Cn2cncn2)c1O	i	1.1	x	x	94	x	x
COc1ccc(/C=N/NC(=O)Cc2cc(OC)c(OC)cc2[N+](=O)[O-])cc1	i	0.78	-2	0.1	100	x	x
COCCNC(=O)CCCC(=O)NCCOC	i	0.9	11	-2.1	81	-3	76
COc1cc(NC(=O)c2ccccc2)c(OC)cc1Cl	i	0.97	-7	-0.5	106	-277	27
COc1cc(-n2c(=O)c3ccccc3n(Cc3cccnc3)c2=O)cc(OC)c1OC	i	0.94	3	-1.7	x	x	x
Cn1nc(C(C)(C)C)cc1NC(=O)Nc1cc(Cl)cc(Cl)c1	i	1	x	x	105	x	x

Four compounds already listed, ordered by SMILES length, ascending:
SMILES	HSV replic up	HSV replic up primary fold	PKD1 inh	GALR2 ag	RGS16-Gao	Insulin prom inh	Insulin prom inh cell count
COc1cc(NC(=O)c2ccccc2)c(OC)cc1Cl	i	0.97	-7	-0.5	106	-277	27
Cn1nc(C(C)(C)C)cc1NC(=O)Nc1cc(Cl)cc(Cl)c1	i	1	x	x	105	x	x
COc1cc([N+](=O)[O-])cc(/C=N/NC(=O)Cn2cncn2)c1O	i	1.1	x	x	94	x	x
O=C(COC(=O)[C@H](Cc1ccccc1)NC(=O)c1cccs1)Nc1c(Cl)cccc1Cl	i	1.1	-2	0.4	98	x	x

Compound activity deposited in PubChem by several laboratories.
